Assay outcomes deposited in PubChem by several laboratories.
MT1-MMP act inh = blockers of MT1-MMP proenzyme processing, primary screen, HT1080 RFP-PRO-GFP cells, GFP/RFP fluorescence; Matrix metalloproteinase-14 (Homo sapiens), P50281; GFP/RFP ratio fluorescence, overnight; percent of plate control window, DMSO zero; GFP/RFP ratio change, % at 20 µM; 360,000 tested, 0.061% active; AID 651647, 2012;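 active means GFP/RFP ratio change of at least 30% with cell ATP level not reduced by more than half and red fluorescence within 50% of control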; further: strong numbers were not always called active
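Test system: HT1080 cells expressing an RFP-PRO-GFP fluorescent reporter construct / Compound dosing: single-point 20 µM compound, 1% DMSO / Schedule: cells overnight before dosing, compound overnight, 37 °C, 5% CO2 / Evaluation: GFP/RFP fluorescence ratio / Control set: DMSO and RFP-L50D-GFP cell wells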
UUG fidelity = modulators of yeast start codon fidelity, primary screen, whole organism, S. cerevisiae, single point, plate reader; AID 602363, 2012; S. cerevisiae UUG-firefly luciferase reporter, luminescence/redox ratio; activity score, % at 18.7 µM; 350,000 tested, 0.13% active;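 active means replicate mean at a twofold rise or more, about +100% in these data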;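 further: firefly luciferase made from a UUG start codon reports start codon fidelity; reporter light over untreated wells divided by growth signal over untreated wells; some hits fall short of that in this replicate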
PABP polyA inh = PABP poly(A) RNA binding inhibitors, primary screen, biochemical, fluorescence polarization, uHTS. Polyadenylate-binding protein 1 (Homo sapiens), P11940. inhibition, % at 35 µM. 290,000 tested, 1% active. AID 2014, 2009;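 active means 50% or more with normal probe brightness, or confirmed in later tests; inconclusive means above 50% with abnormal brightness, or retests that disagree; inactive means below 50% or failed in later tests; about a fifth of its hits are not listed in these tables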;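 further: calls also rest on retests at 20 µM and on dose response follow-up; controls were probe without protein and protein plus probe with vehicle; some compounds called inactive have numbers as strong as hits; many hits fall short of the cut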
Target sequence (P11940 whole entry, looked up): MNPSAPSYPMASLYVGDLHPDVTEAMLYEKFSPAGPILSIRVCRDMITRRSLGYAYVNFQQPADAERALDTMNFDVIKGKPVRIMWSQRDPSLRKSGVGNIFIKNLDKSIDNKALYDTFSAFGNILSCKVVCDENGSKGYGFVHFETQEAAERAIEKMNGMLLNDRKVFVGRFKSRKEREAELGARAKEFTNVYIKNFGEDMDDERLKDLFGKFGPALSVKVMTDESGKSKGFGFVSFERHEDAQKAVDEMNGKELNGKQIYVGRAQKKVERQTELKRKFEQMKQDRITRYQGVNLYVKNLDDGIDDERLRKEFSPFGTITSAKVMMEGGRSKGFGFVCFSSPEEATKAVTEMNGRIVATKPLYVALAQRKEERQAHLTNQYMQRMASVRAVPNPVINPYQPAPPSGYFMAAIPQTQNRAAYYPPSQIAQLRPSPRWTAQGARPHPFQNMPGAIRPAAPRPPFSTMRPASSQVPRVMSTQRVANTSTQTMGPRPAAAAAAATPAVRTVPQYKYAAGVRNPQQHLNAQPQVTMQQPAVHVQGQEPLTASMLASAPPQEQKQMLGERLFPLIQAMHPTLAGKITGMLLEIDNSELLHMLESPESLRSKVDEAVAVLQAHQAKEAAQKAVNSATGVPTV
eIF4H inh = human eIF4H binding inhibitors, primary screen, translation initiation inhibitor project, biochemical, uHTS, fluorescence polarization; Eukaryotic translation initiation factor 4H (Homo sapiens), Q15056; eIF4H fluorescence polarization binding assay; inhibition, % at 35 µM; 290,000 tested, 0.94% active;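 active means 50% or more with normal probe brightness, or confirmed in later tests; inconclusive means above 50% with abnormal brightness, or retests that disagree; inactive means below 50% or failed in later tests; about a fifth of its hits are not listed in these tables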;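 further: calls also rest on retests at 20 µM and on dose response follow-up; 0% = protein and probe with vehicle and 100% = probe without protein; strong numbers were not always called active; many hits fall short of the cut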
Env fusion inh = inhibitors of HIV-1 Env-driven cell-cell fusion, primary screen, HeLa-JRFL effector, CEM21 target cells, luciferase | AID 651610, 2012 | inhibition, % at 12.3 µM | 360,000 tested, 1.1% active;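 active means mean replicate inhibition score of at least 50 and every replicate individually at or above 50; inconclusive means only one of the two criteria met; inactive means mean below 50 and not all replicates reaching 50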;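 further: 0% = plate neutral controls and 100% = maraviroc near 300 nM; one replicate is shown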
CSC inhib = cancer stem cell viability inhibitors, primary screen, luminescence; cancer stem cell-like cells viability; inhibition, % at 7.5 µM; 300,000 tested, 1.1% active; AID 2717, 2010;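 active means mean at 75% or more and at least half the replicates too; inconclusive means mean and replicates disagree; tested in HMLE shEcad cells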;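 further: 0% = median of negative and 100% = median of positive control wells; the first replicate is given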
Rce1 inhib = yeast Rce1p protease inhibitors, primary screen, biochemical, fluorescence, cell-free homogeneous; CAAX prenyl protease 2 (Saccharomyces cerevisiae (strain ATCC 204508 / S288c)), Q03530; yeast membranes, quenched prenylated peptide cleavage fluorescence; calls only; 290,000 tested, 0.27% active; AID 2563, 2010;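 active means fall in fluorescence gain of 50% or more versus controls, with final raw signal at or below 3038400; inconclusive means same 50% fall but final raw signal above 3038400; inactive means fall in fluorescence gain under 50%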;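 further: plate controls were neutral control wells for no effect and wells lacking membranes for full effect; tested at 10 µM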
MT1-MMP act inh RFP = recorded beside MT1-MMP act inh, whose call it bears; RFP signal change, %; measured here: RFP expression control read;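 0 = vehicle wells; hits needed this value within 50% of zero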
* = called active by the depositor; i = inactive; ? = inconclusive; / = not tested or not shown. Hits appear at their usual frequency, and some 3% of all compounds hit somewhere here.

SMILES	MT1-MMP act inh	MT1-MMP act inh RFP	UUG fidelity	PABP polyA inh	eIF4H inh	Env fusion inh	CSC inhib	Rce1 inhib
CCN=C1S/C(=C\c2cn(CC(=O)NCCOC)c3ccccc23)C(=O)N1CC	1.0	1.3	1.9	-1.0	0.2	3.0	-5.7	i
O=C(CN1CCOCC1)Nc1cc(C(F)(F)F)ccc1Cl	0.9	-7.4	-5.4	-19.9	-4.0	-0.7	-4.8	/
COc1ccc(Cl)cc1N1C(=O)C2CCCN2C1c1ccc(F)cc1 (stereo not drawn)	-0.8	0.2	-17.5	-7.0	-1.9	0.9	-2.7	i
COC(=O)c1cc(S(=O)(=O)Nc2ccsc2C(=O)OC)oc1C	2.4	-2.7	0.3	-9.5	-4.7	0.1	-1.4	i
Cc1nc2cc(-c3cccs3)nn2c(NCC(C)(C)CN(C)C)c1C	4.1	5.0	/	-9.6	-14.2	-9.4	-3.1	i
CC(Cc1nnc(SCC(=O)O)n1N)c1ccccc1 (stereo not drawn)	-1.6	2.3	-21.0	4.3	-8.4	-8.8	-9.8	i
CSc1nnc2ccc(-c3ccccn3)nn12	-8.2	-1.1	-8.2	-9.1	-11.3	-7.6	-5.0	i
Nc1cc(OC(=O)c2cccs2)nn1S(=O)(=O)c1ccc(F)cc1	6.1	1.2	-9.0	-1.2	-11.7	/	0.0	i
CC(=O)N1CCc2cc(S(=O)(=O)NCC(=O)NCc3ccc(Cl)cc3)ccc21	-2.1	-0.5	1.3	-4.9	-13.4	-2.8	-21.3	i
CCC1CCCCN1S(=O)(=O)c1ccc2[nH]c(=O)ccc2c1 (stereo not drawn)	1.2	4.0	6.3	0.5	-2.6	30.0	/	i
CC(=O)CC(=O)Nc1ccn(-c2ccccc2)n1	-5.6	1.8	-6.6	-6.2	-3.4	/	3.8	i
CNC(=S)NNC(=O)c1cn(C)nc1C	1.9	5.6	/	-1.1	-3.5	1.8	0.8	i
CCCC(c1nnnn1Cc1cccs1)N1CCN(C2CCCC2)CC1 (stereo not drawn)	-8.5	-1.3	-6.6	10.3	-12.7	-71.6	53.9	i
O=[N+]([O-])c1ccc(O)c(N=Cc2sc3ccccc3c2O)c1	-13.8	31.7	-4.1	-1.0	4.3	1.4	19.6	i
COc1cccc(-c2nn[nH]n2)c1O	-1.5	4.1	-27.8	-11.3	8.6	/	-17.6	i
Cc1ccc(Nc2c(N)c(=O)oc3ccccc23)cc1	1.1	-2.9	/	-13.3	-10.0	-20.4	40.6	i
CSCc1c(C(=O)OCC(=O)c2ccc[nH]2)oc2ccccc12	1.4	3.6	-25.5	/	/	-4.2	/	/
COc1cc(CC(=O)Oc2ccc3c(c2)OCO3)cc(OC)c1OC	-3.5	0.2	-1.6	6.8	5.8	/	24.1	i
CCOC(=O)C1CN(S(=O)(=O)c2ccc(OC)cc2)c2ccccc2O1 (stereo not drawn)	-1.6	-0.6	11.0	3.0	-5.0	5.5	-10.0	i
O=C(Nc1cc2c(cc1Br)OCCCO2)c1cccnc1	-19.8	0.8	-19.0	-8.0	0.5	-21.1	-9.4	/
O=C(Nc1cccc(S(=O)(=O)N2CCOCC2)c1)c1cc([N+](=O)[O-])ccc1N1CCOCC1	1.8	1.3	2.1	/	/	2.8	/	i
COc1ccc(Oc2nc3ccccc3nc2C(F)(F)F)cc1	-1.2	-3.4	/	-4.1	-2.9	16.9	-7.7	i
CCOC(=O)Nc1ccc2nc(N3CCCCCC3)sc2c1	0.8	-11.5	-14.5	-1.8	4.8	-225.8	59.2	i
CC(NC(=O)C(C)N1CCN(Cc2ccccc2)CC1)c1ccc(F)cc1 (stereo not drawn)	-0.2	4.2	-11.6	3.0	0.7	-8.6	-3.4	i
CCn1cc(Cl)c(C(=O)Nc2nc3ccccc3n2CCN2CCCCC2)n1	3.5	3.8	-25.9	-11.7	1.1	24.4	6.8	i
Cc1ccc(-n2ncc3c(NCc4cccnc4)ncnc32)c(C)c1	4.7	-22.6	/	-8.8	-12.6	58.1*	-5.4	i
CC(=O)c1c(C(=O)O)c2ccccc2[nH]c1=O	1.7	4.3	/	2.2	4.8	-5.4	-13.8	i
CCn1c(SCC(=O)NC2CCCCC2)nnc1C(CO)NC(=O)c1ccccc1 (stereo not drawn)	3.1	4.5	-11.4	3.3	-5.0	8.5	-4.8	i
O=C/C(=C\Nc1ccc(Br)cc1)c1nc2ccccc2o1	-3.3	-1.0	/	-6.7	-12.7	3.3	8.4	i
Cc1ccc(S(=O)(=O)Oc2ccccc2/C=C2/SC(=O)NC2=O)cc1	0.5	-1.3	/	0.7	-3.6	0.6	27.0	/
O=C(CSc1nc2cc(Cl)ccc2o1)NC1CC1	-2.3	2.7	-6.4	/	/	-16.6	8.1	/
CC1(C)CC(N2CN(C3CCCCC3)CC2=O)CC(C)(C)N1	1.3	1.5	-6.2	-1.6	5.5	/	/	i
COc1ccc(N(CC(=O)NC2CCCC2)C(=O)Cn2nnc(-c3ccc(C)o3)n2)c(OC)c1	1.3	0.6	4.4	-0.2	-14.2	13.8	/	i
COc1ccc(N2CC(C(=O)OCC(=O)Nc3cccc(C)c3C)CC2=O)cc1 (stereo not drawn)	0.0	-0.3	11.0	13.6	-2.7	-2.0	-21.6	i
Cc1ccc(C2C(C=Nc3c(C)n(C)n(-c4ccccc4)c3=O)=C(c3ccccc3)Oc3ccccc32)cc1 (stereo not drawn)	-7.5	-8.7	-28.1	-15.0	2.4	-139.2	/	i
Cc1nc(C(=O)Nc2cc(Cl)ccc2Cl)nn1-c1cc(OC(C)C)c(Cl)cc1Cl	5.5	-4.4	2.4	8.5	13.6	-7.3	14.8	i
Cc1nc(Nc2ccc(C(=O)O)cc2)sc1-c1ccccc1	1.0	-2.0	/	2.6	13.2	-22.6	1.3	i
C/C(CC(=O)NCc1ccco1)=N\NC(=O)COc1ccc(Cl)cc1Cl	-4.3	1.8	-3.2	7.6	-16.1	-18.9	-2.6	i
N#Cc1ccccc1NC(=O)COC(=O)c1c[nH]c2ccccc12	-2.2	-1.5	-16.8	/	/	-18.9	/	/
CC(C)N1CC(C(=O)Nc2ccc(Cl)c([N+](=O)[O-])c2)CC1=O (stereo not drawn)	3.6	-0.7	-0.9	5.1	-0.1	-0.3	-11.6	i
Cc1ccc(NC(=O)CO/N=C/c2ccc(N(C)C)cc2)cc1	-35.4	0.3	/	-8.1	?	-4.3	-3.4	/
CC(C)(C)c1cc(-c2nc(N)nc(N)n2)c(O)c(C(C)(C)C)c1	-1.0	-2.1	-18.7	/	/	15.4	126.5*	/
COc1cc(C(=O)OC2CC3CCC2(C)C3(C)C)ccc1OC(C)=O (stereo not drawn)	-1.2	-5.0	-12.1	-2.7	0.2	/	81.3*	i
Cc1ccc(NC(=O)C2CCCN(c3ncnc4c3nc3n4CCCCC3)C2)cc1Cl (stereo not drawn)	2.6	-10.1	2.2	-2.0	-9.3	10.0	9.7	i
COc1ccc(/C=N/N=C2/NC(=O)C(CC(=O)NC(N)=O)S2)cc1 (stereo not drawn)	0.9	3.5	-13.3	8.5	0.2	22.3	-8.5	i
O=C(NCCNC(=O)C(F)(F)F)c1ccncc1	1.2	0.8	-19.0	-7.4	-5.3	-12.5	-5.3	i
Cc1nn(CC(=O)OC(C)C(=O)Nc2ccccc2[N+](=O)[O-])c(C)c1[N+](=O)[O-] (stereo not drawn)	-2.9	-1.4	/	-1.4	0.8	-15.1	3.7	i
CCc1ccc(/C=C2\C(=N)N3N=C(CC(=O)N4CCCCC4)SC3=NC2=O)cc1	-0.8	-0.5	-12.8	/	/	-6.0	12.4	i
O=C(COc1cccc2ccccc12)NNC(=O)C1CCCO1 (stereo not drawn)	0.8	3.6	-15.8	14.0	0.4	39.2	1.0	i
CCc1nnc(NC(=O)c2ccc(-c3ccc(F)cc3)o2)s1	5.2	-1.7	/	47.2	-0.7	0.7	-1.8	i
CCNc1nc(NCC)nc(SCCOC(=O)Nc2ccc(Cl)cc2Cl)n1	-1.9	-1.0	/	2.9	-9.9	7.9	-8.1	i
CCOC(=O)c1sc2ncnc(N3CCN(CC)CC3)c2c1C	5.1	3.1	/	13.7	6.0	8.4	8.3	i
O=C(Nc1ccc(Oc2ccccc2)cc1)c1csc([C@H]2C[C@H](O)[C@@H](CO)O2)n1	5.6	-26.0	-10.9	/	/	67.7*	/	/
Cc1ccc(S(=O)(=O)CCC(=O)OCc2cc(C)ccc2C)cc1	5.4	-6.1	/	/	/	35.4	-4.4	i
Cc1c(Cl)cccc1NS(=O)(=O)c1ccc(-c2ccc(=O)[nH]n2)o1	1.7	1.4	-8.9	5.0	-2.1	4.1	-30.8	i
CCC(C)(C(=O)Nc1ccc2c(c1)OCCO2)N(C(C)=O)c1ccc(C(N)=O)cc1 (stereo not drawn)	-1.0	-4.6	8.9	?	?	0.0	-1.0	i
Cc1ccc(S(=O)(=O)N2CCC(=O)N(CCOC(=O)Nc3cccc(Cl)c3)CC2)cc1	2.5	-13.9	2.4	-8.5	0.1	92.0*	16.0	i
Cc1ccc(CN2CCC[C@]3(N[C@H](c4ccc(C)cc4)[C@@H]4C(=O)N(Cc5ccccc5)C(=O)[C@@H]43)C2=O)cc1	3.3	-4.7	-7.9	/	/	i	/	/
Cc1ccccc1Cn1nc(C)c(NC(=O)/C=C/c2cnn(C)c2)c1C	-9.1	-4.6	/	0.4	0.2	-9.6	11.7	i
COC(=O)c1sc(NC(=O)C2CCCO2)c(C(=O)OC)c1C (stereo not drawn)	-5.8	-9.9	-16.4	3.0	-6.2	/	-2.7	i
(next part)
SMILES	MT1-MMP act inh	MT1-MMP act inh RFP	UUG fidelity	PABP polyA inh	eIF4H inh	Env fusion inh	CSC inhib	Rce1 inhib
COc1cccc(-c2cccc(-c3nc(C(=O)NCCCN4CCOCC4)cc4c3[C@H](CCO)N(S(=O)C(C)(C)C)C4)c2)c1 (stereo partly drawn)	3.5	2.7	-0.9	/	/	18.5	/	/
OC(CNc1ccccc1)COc1ccc(OCC(O)CNc2ccccc2)cc1 (stereo not drawn)	-3.1	-15.8	0.1	-8.8	-11.6	/	55.7	i
CC(=O)c1c(C)[nH]c(C(=O)Nc2ccc(C)cc2Br)c1C	-2.6	-5.5	-11.9	5.4	-6.2	-37.6	-7.6	i
Cc1ccc(S(=O)(=O)N2CCOCC2)cc1NC(=O)CSc1nc(N)cc(=O)[nH]1	-3.0	2.9	9.3	-2.1	-11.1	-10.4	-1.8	i
CCOC(=O)N1CCN(c2c(NCCN3CCN(c4ccccc4F)CC3)c(=O)c2=O)CC1	1.3	3.0	-7.4	-6.6	-9.5	-4.9	/	i
CC(=O)Nc1ccc2c(c1)C(C)(C)C(C)N2C (stereo not drawn)	/	/	/	-3.3	?	15.0	-11.5	i
